# High-throughput results deposited in PubChem BioAssay by National Center for Advancing Translational Sciences (NCATS).
# GCN5L2 inh: blocks human GCN5L2 histone acetyltransferase; GCN5L2 HAT assay, ThioGlo1 CoA-SH fluorescence; Potency, µM (top dose mostly 58.9 µM), inactives show at the top dose activity change, negative = inhibition, hits mostly inhibitors; 390,000 tested, 0.21% active; active = well fitted inhibition curve with a large enough effect; inconclusive = small, poorly fitted or top-dose-only effect, or another doubt; inactive = no such curve, though single readings can be large or run the other way
# Target sequence (Q92830 whole entry, looked up): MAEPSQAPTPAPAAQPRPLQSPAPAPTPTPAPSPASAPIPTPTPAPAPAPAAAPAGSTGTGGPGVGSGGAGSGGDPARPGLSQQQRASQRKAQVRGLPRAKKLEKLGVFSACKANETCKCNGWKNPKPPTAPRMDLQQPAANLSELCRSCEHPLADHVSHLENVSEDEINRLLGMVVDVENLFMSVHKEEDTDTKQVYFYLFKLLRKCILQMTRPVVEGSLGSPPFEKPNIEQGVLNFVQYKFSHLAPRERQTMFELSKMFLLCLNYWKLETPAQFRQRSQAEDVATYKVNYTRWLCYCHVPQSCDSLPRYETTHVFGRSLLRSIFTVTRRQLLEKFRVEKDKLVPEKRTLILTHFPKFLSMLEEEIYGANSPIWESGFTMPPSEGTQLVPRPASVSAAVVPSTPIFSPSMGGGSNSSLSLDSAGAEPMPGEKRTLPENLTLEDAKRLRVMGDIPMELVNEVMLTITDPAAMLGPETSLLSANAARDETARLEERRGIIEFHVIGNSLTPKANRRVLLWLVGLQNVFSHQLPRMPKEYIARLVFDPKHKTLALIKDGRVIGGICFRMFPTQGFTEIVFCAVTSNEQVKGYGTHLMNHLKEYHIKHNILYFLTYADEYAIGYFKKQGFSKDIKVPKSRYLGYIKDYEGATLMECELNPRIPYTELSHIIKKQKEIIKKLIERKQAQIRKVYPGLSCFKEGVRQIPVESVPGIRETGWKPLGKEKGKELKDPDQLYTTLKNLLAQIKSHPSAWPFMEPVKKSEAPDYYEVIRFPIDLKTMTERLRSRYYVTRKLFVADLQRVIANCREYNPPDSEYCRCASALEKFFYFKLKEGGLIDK
#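 Free CoA generated was detected with ThioGlo1 (50uM) fluorescence at Ex340nm/Em540nm, read immediately and after 20 min at room temperature. Enzyme, 20 nM in HEPES pH 7.5 buffer, saw compounds 15 min before adding 75uM H3(1-25) peptide and 70uM acetyl-CoA.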
# Numbers without * were called inactive; u = inconclusive; & = joins results of further samples. % is scaled to controls: 0 for no effect and ±100 for the full control effect; potency is read from the fitted curve at half-maximal effect. A portion of the library, and most or all hits are left out here.
SMILES,GCN5L2 inh
COc1ccc(OC)c(S(=O)(=O)N(C)CC(=O)Nc2cc(Cl)ccc2OC)c1,-3.1%
C=CCNC(=O)c1oc2ccc(S(=O)(=O)N3CCC4(CC3)OCCO4)cc2c1C,-5.5%
COc1ccc(NC(=O)CSc2ccc(-c3cccs3)nn2)c(OC)c1,-2.6%
Cc1ccccc1NC(=O)COC(=O)CCc1c[nH]c2ccccc12,-3.1%
Cc1c(C)c2ccc(OCC(=O)NCCCN3CCCC3=O)cc2oc1=O,-0.6%
CC1=CC(C)(C)N(C(=O)CSc2nnc(C)s2)c2ccc(C)cc21,-13.2%
O=C(c1ccc(F)cc1)N1CCCC(c2nc(-c3cccs3)no2)C1 (stereo unspecified),-2.5%
COc1ccc(CNC(=O)c2cc(-c3ccco3)on2)cc1,-11.9%
CC(OC(=O)C1=COCCO1)C(=O)Nc1ccccc1C#N (stereo unspecified),-3.9%
Cc1cc(N2CCN(c3nc(-c4ccc([N+](=O)[O-])cc4)cs3)CC2)c2ccccc2n1,-17.3%
COc1ccc(N2CCN(C(=O)CN3C(=O)NC4(CCCCCC4)C3=O)CC2)cc1,2.4%
COc1cccc(C(=O)CN(C(=O)c2ccc(Cl)c(Cl)c2)N2C(=O)c3ccccc3C2=O)c1,3.0%
CCOc1ccc(NC(=O)C2CCCN(C(=O)NCc3ccccc3)C2)cc1 (stereo unspecified),-2.0%
c1ccc(SCc2nc(-c3cccnc3)no2)cc1,1.4%
O=C(CNC(=O)c1ccc(Cl)cc1)N/N=C/C=C/c1ccccc1,-3.7%
COc1ccccc1C(=O)Nc1ccc(OCC(=O)N2CCCCC2)cc1,-0.7%
Cc1cc(C)nc(N(C#N)CN2C(=O)c3ccccc3C2=O)n1,-6.0%
Cc1ccc(CCNC(=O)c2nnn(-c3cccc(C)c3)c2N)cc1,-8.9%
CN(C)CCCOC1C(C(O)CO)OC2OC(C)(C)O[C@@H]21 (stereo partly specified),-0.7%
COC(=O)c1cc(S(=O)(=O)Nc2ccsc2C(=O)OC)oc1C,1.4%
CCCCN(C(=O)C(C)N1C(=O)c2ccccc2C1=O)c1c(N)n(CC(C)C)c(=O)[nH]c1=O (stereo unspecified),-0.7%
O=C(CN1CCCCC1)N/N=C/c1ccccc1OCc1ccccc1,-1.1%
CC1CN(C)C(C)C/C1=N\Oc1ccc([N+](=O)[O-])cc1 (stereo unspecified),-3.9%
COc1ccc(OC)c(-c2cc(C(=O)N3CCCc4ccccc43)no2)c1,-17.4%
CC(C)c1ccc(NC2CCCN(C(=O)c3ccoc3)C2)cc1 (stereo unspecified),-1.8%
Cc1cc(Nc2nc3ccccc3[nH]c2=O)n(-c2ccccc2)n1,-10.8%
Cc1onc(-c2ccccc2)c1CNS(=O)(=O)c1cccc(Br)c1,2.0%
CCN(CC)c1ccc(C2C3CCCCC3(O)CCN2CC(=O)N2CCCCC2)cc1 (stereo unspecified),-0.2%
CCc1nnc(NC(=O)CSc2nnc(-c3cccnc3)n2C)s1,1.1%
Cc1ccc(P(=O)(CSC(=N)N)c2ccc(C)cc2)cc1,-2.0%
CCn1c(=O)n(CC)c2cc(N3CCCC3)c(NC(=O)c3ccc(C)cc3)cc21,-1.3%
CCS(=O)(=O)Nc1cccc(C2=NN(S(=O)(=O)CC)C(c3ccccc3)C2)c1 (stereo unspecified),-2.4%
CCOc1ccc(NS(=O)(=O)c2cc3c(cc2Cl)NC(=O)CO3)cc1,-10.7%
O=S(=O)(NC(=NCCc1ccc(Cl)cc1)c1ccccc1Cl)c1cccs1,-0.6%
Cc1ccc(OCCC(=O)Nc2c(C)n(C)n(-c3ccccc3)c2=O)cc1,-2.6%
COc1cc(NC(=O)CCCc2nnc3n(CC(C)C)c(=O)c4sccc4n23)cc(OC)c1,-7.9%
Cc1cc(Cl)c2oc(C(=O)N(C)C(C)c3ccccn3)c(C)c2c1 (stereo unspecified),u
O=C1C2CCCN2C(c2cccs2)N1c1ccc(F)cc1 (stereo unspecified),1.4%
COCCOC(=O)c1nccnc1C(=O)Nc1ccc(S(=O)(=O)N2CCOCC2)cc1,-7.9%
CCOC(=O)CSc1ccccn1,5.4%
O=C(O)CS(=O)CC(=O)Nc1cccc(C(F)(F)F)c1 (stereo unspecified),-15.0%
O=C(Nc1nc2ccc(S(=O)(=O)N3CCCCC3)cc2s1)c1ccncc1,-25.3%
O=C1NC2(CCCCCC2)N=C1c1ccc(F)cc1,-6.5%
COc1ccc(-c2cn[nH]c2C)cc1,-7.7%
CCC(CC)C(=O)Nc1nnc2n1CCS2,1.8%
O=C(CN1CCCN(Cc2cccc(Cl)c2)S1(=O)=O)Nc1ccc2c(c1)OCCO2,-8.9%
N/C(=N\OC(=O)COc1ccccc1)c1ccncc1,-0.4%
NC1(C(=O)O)C[C@@H](C(=O)O)[C@H](C(=O)O)C1,-18.3%&-11.8%&-9.8%
N#CCCN1CCN(S(=O)(=O)c2ccc(S(=O)(=O)NC3CCCC3)cc2)CC1,-9.1%
Cc1c(N2C(=O)c3ccccc3C2=O)c(=O)n(-c2ccccc2)n1C,-0.6%
CCCN(CC(=O)Nc1cc(C)on1)CC(=O)Nc1ccc(F)c(F)c1F,-4.8%
Fc1ccc(CN2CCN(C(=S)NCCc3ccccc3)CC2)c(Cl)c1,-5.0%
Cc1ccc(NC(=O)c2nnn(CC(=O)Nc3ccc4c(c3)OCO4)c2N)cc1C,-9.4%
CCn1c(=O)c(C(C)=O)c(O)c2ccccc21,-5.0%
O=S(=O)(c1ccc(SCc2ccccc2)nc1)N1CCCCCC1,-7.9%
Cc1ccc(S(=O)(=O)/N=C/c2ccco2)cc1,-3.4%
Cc1ccc(S(=O)(=O)Nc2ccc(C(=O)NCc3cccnc3)cc2)cc1,0.4%
Cc1ccc(C)c(N2CCN(c3nc4c(S(=O)(=O)c5ccccc5)nnn4c4ccc(Cl)cc34)CC2)c1,1.8%
COC(=O)c1cc(Br)ccc1NC(=O)Nc1ccccc1,2.6%
O=C(Nc1ccccc1)N1CCN(c2nc3ccccc3s2)CC1,-4.6%

# Overlap with the part before: two compounds; new compounds follow.
SMILES,GCN5L2 inh
COC(=O)c1cc(Br)ccc1NC(=O)Nc1ccccc1,2.6%
O=C(Nc1ccccc1)N1CCN(c2nc3ccccc3s2)CC1,-4.6%
O=C(O)Cc1nn(Cc2ccc(Cl)cc2)c(=O)c2ccccc12,-9.1%
O=C(CN1C(=O)C2CC=CCC2C1=O)Nc1ccc(S(=O)(=O)N2CCOCC2)cc1 (stereo unspecified),1.8%
CCOC(=O)Cc1ccc(NC(=O)Nc2cccc(OCc3cc(=O)n4cc(C)ccc4n3)c2)cc1,-9.5%
O=C(COc1ccc(Cl)cc1)NCC(=O)N/N=C/c1cccs1,-1.4%
CNC[C@H](O)c1cccc(O)c1,-4.5%&-0.8%&-19.2%
O=C(OCC(=O)N1CCc2ccccc2C1)c1cccs1,-6.0%
CC(C)c1ccc(NC(=O)CCN2C(=O)[C@@H]3Cc4ccccc4CN3C2=O)cc1,-1.1%
COc1ccc(C(=O)Nc2ccccc2NC(=O)c2ccco2)cc1OC,-1.2%
COc1ccc(CCN(C)CC(=O)Nc2c(C)cc(C)cc2C)cc1OC,-0.1%
COc1ccc(Cn2c(=O)c3oc4ccccc4c3n(Cc3ccc(F)cc3)c2=O)cc1,-1.3%
O=C(Nc1cc(Cl)ccc1N1CCOCC1)c1ccc(=O)[nH]c1,-10.3%
COc1ccc(-n2nc(C(=O)Nc3cc(C)ccn3)c3c4ccccc4n(C)c3c2=O)cc1Cl,-2.2%
CCc1cccc(C)c1NC(=O)Nc1csc2c1CCCC2,-6.4%
O=C(COC(=O)CCC1CCCCC1)Nc1ccc(OC(F)F)cc1,-14.4%
Cc1ccc(-c2cc(C)nc3ncnn23)cc1,-4.4%

# Given with tabs: six of the compounds above
smiles	GCN5L2 inh
Cc1ccc(P(=O)(CSC(=N)N)c2ccc(C)cc2)cc1	-2.0%
CCS(=O)(=O)Nc1cccc(C2=NN(S(=O)(=O)CC)C(c3ccccc3)C2)c1 (stereo unspecified)	-2.4%
COc1ccc(NC(=O)CSc2ccc(-c3cccs3)nn2)c(OC)c1	-2.6%
Cc1c(N2C(=O)c3ccccc3C2=O)c(=O)n(-c2ccccc2)n1C	-0.6%
Cc1ccc(C)c(N2CCN(c3nc4c(S(=O)(=O)c5ccccc5)nnn4c4ccc(Cl)cc34)CC2)c1	1.8%
O=C(COC(=O)CCC1CCCCC1)Nc1ccc(OC(F)F)cc1	-14.4%

# (more compounds)
SMILES,GCN5L2 inh
C#C[C@]1(O)CCC2C3CCC4=CC(=O)CC[C@@H]4C3CC[C@@]21C (stereo partly specified),2.8%
O=C(CCSc1ccccc1)NCc1cccnc1,-1.6%
Cc1cc(C(=O)NC2CC(C)(C)Cc3c2cnn3-c2cccc(F)c2)n(C)n1 (stereo unspecified),-2.9%
CCOc1ccc(NC(=O)Cn2cnc3sc(C)c(S(=O)(=O)N4CCN(c5ccccc5OC)CC4)c3c2=O)cc1,-5.2%
CCCOc1ccc(CNC(=O)c2cc3oc4ccccc4c3n2C)cc1,-4.1%
COC(=O)c1c(NC(NC(=O)C(C)C)C(Cl)(Cl)Cl)sc2c1CCCC2 (stereo unspecified),-13.1%
COCCNC(=O)c1ccc2c(c1)N(Cc1cc(C)ccc1C)C(=O)c1ccccc1S2(=O)=O,-4.8%
COc1ccc(-c2noc(CCC(=O)Nc3ccc(C(F)(F)F)cc3)n2)cc1,-17.4%
COc1ccccc1N1CCN(c2ccc(=O)n(CC(=O)Nc3ccc(F)c(F)c3)n2)CC1,8.0%
CCCCNC(=O)[C@@H]1CCCN1S(=O)(=O)c1cccc2cccnc12,-5.1%
CC(C)(C)NC(=O)NC(=O)COC(=O)c1ccc(OC(F)F)cc1,1.8%
COc1ccc(-n2nc(C(=O)NCC(=O)N3CCN(c4cccc(Cl)c4)CC3)c3ccccc3c2=O)c(OC)c1,-7.1%
CCC1(c2ccccc2)C(=O)NCNC1=O,-0.9%&1.9%
O=C(CCc1nc(-c2ccccc2)c(-c2ccccc2)o1)OCc1ccc(Cl)cc1,-8.0%
CN(C)/C=C/C(=O)c1cnc(-c2ccc(Cl)cc2)s1,-8.1%
O=C(CN1CCN(S(=O)(=O)c2cc(C(F)(F)F)ccc2Cl)CC1)N1CCc2ccccc2C1,-0.2%
O=c1cc[nH]c2ccc([N+](=O)[O-])cc12,-3.7%
O=C(Nc1ccc(F)c(Cl)c1)C1CCCN1S(=O)(=O)c1ccc(F)cc1 (stereo unspecified),-7.8%
COC(=O)c1ccc(Cn2cnc3ccccc3c2=O)cc1,-6.6%
O=c1c2[nH]c3ccc(Br)cc3c2ncn1Cc1ccncc1,-3.2%
O=C(NCC1CCCCN1)c1cc(OCC(F)(F)F)ccc1OCC(F)(F)F (stereo unspecified),3.0%
COC(=O)c1ccc(NC(=O)COc2ccc(C3C(C#N)=C(N)Oc4c3ccc3ccccc43)cc2OC)cc1 (stereo unspecified),-19.7%
O=C(CSc1ccccn1)Nc1ccc(Cl)c([N+](=O)[O-])c1,-2.1%
CC(C)CCNC(=O)C(c1ccncc1)N(CC1CCCO1)C(=O)Cn1nnc(-c2ccc(F)cc2)n1 (stereo unspecified),3.7%
CCOC(=O)c1nnn(-c2nonc2N)c1C,-10.2%
COc1ccc(OC)c(CCNC(=O)CCc2nnc3ccc(N4CCCC4)nn23)c1,-18.1%
COc1ccc(-c2cc(C(=O)N3CCN(C(=O)c4ccco4)CC3)[nH]n2)cc1,-6.3%
CC(C)(C)C(=O)OCc1nc(-c2ccc(Cl)cc2)cs1,-1.9%
CCN(Cc1nc(-c2cccc(Cl)c2)no1)CC1CCCO1 (stereo unspecified),-6.3%
CC1CCN(CCOCCOc2ccccc2Br)CC1,-1.7%
NS(=O)(=O)c1ccc(NC(=O)CSc2nc3c(c(=O)[nH]2)CCCC3)cc1,-1.0%
Cn1ncc(Cl)c1C(=O)N1CCOCC1,-0.8%
CCC(C)NC(=O)CC(C)C (stereo unspecified),-3.9%
CCOC(=O)N1CCN(c2c(NCCN3CCCCC3CC)c(=O)c2=O)CC1 (stereo unspecified),-2.5%
O=C(COc1ccc(S(=O)(=O)N2CCCC2)cc1Cl)NCc1ccccn1,-1.2%
COc1ccc(NC(=O)CN2CCN(Cc3ccccc3Cl)S2(=O)=O)cc1Cl,-17.2%
CCc1ccc(S(=O)(=O)Nc2ccc(N3CCN(C)CC3)cc2)cc1,-3.6%
O=C(NCc1cc(C(F)(F)F)cc(C(F)(F)F)c1)C1CC(c2ccccc2[N+](=O)[O-])=NO1 (stereo unspecified),-2.2%
CCc1ccc(N(CC)C(=O)Cn2c(=O)oc3ccccc32)cc1,-10.3%
NC1=NC2(CCCCC2)N(c2ccc(F)cc2)C(N)=N1,-3.2%
COc1cc(S(=O)(=O)Nc2ccc3nc(C)sc3c2)ccc1NC(C)=O,-11.9%
COc1ccc(C2SCCN2S(=O)(=O)c2ccc(NC(C)=O)cc2)cc1 (stereo unspecified),-6.7%
CC1(C)C(=O)Nc2ccccc2N1C(=O)COC(=O)/C=C/c1ccc(OC(F)F)cc1,1.4%
c1ccc(C2=Nn3c(nnc3-c3cccnc3)SC2)cc1,-1.3%
CCOC(=O)C1CCN(S(=O)(=O)c2ccc(OC)c(C(=O)N3CCCCC3)c2)CC1,-0.6%
Cc1cc(C)c(S(=O)(=O)Nc2cccnc2)c(C)c1,-0.2%
COc1ccc(/C=N/OCC(=O)NC(c2ccccc2)c2ccccc2)c(OC)c1,-5.1%
COC(=O)C1=C(N)Oc2cc(C)n(CC3CCCO3)c(=O)c2C1c1ccc(Cl)c(Cl)c1 (stereo unspecified),-15.4%
OCCCN1CCN(CCCOc2ccccc2-c2ccccc2)CC1,-1.0%
O=C(NNC(=O)c1cc(F)c(F)cc1Cl)c1ccc(NS(=O)(=O)c2cccs2)cc1,-15.5%
